# Calb FLC – C. albicans growth inhibition with fluconazole, primary screen, CaCi-2 strain, Alamar Blue fluorescence; C. albicans CaCi-2 (fluconazole-resistant clinical isolate) + fluconazole, 48 h; growth inhibition, % (test concentration not listed); actives 0.57% (n = 300,000); AID 1979, 2009;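 active means most replicates above 75%; inconclusive means exactly half above 75%; inactive means most below 75%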;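 further: all wells also contain fluconazole at 8 µg/ml as a sub-toxic cotreatment; 0% = median of DMSO wells and 100% = median of geldanamycin control wells; wells of about 8 µL received 7.5 nL stock; the first replicate is given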
# RanGTP-Imp inh – inhibitors of RanGTP-importin-beta interaction, primary screen, biochemical, FRET, CFP-Ran, YFP-importin-beta, homogeneous; Ran GTPase (GTP-bound) - importin-beta complex; cell-free CFP-Ran/YFP-importin-beta FRET ratio; inhibition, % (concentration not given with the values); actives 1.1% (n = 300,000);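 active means most replicates above 15%; inconclusive means exactly half above 15%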;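 further: 0% = DMSO wells and 100% = Ran loaded with GDP instead of GTP; wells of about 40 µL received 100 nL stock; the first replicate is given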
# Vif A3G – inhibitors of Vif binding to APOBEC3G peptide, primary screen, biochemical, TR-FRET, GST-Vif 1-94, biotin-A3G peptide, dose response retest (AID 1117319); TR-FRET GST-Vif / biotin-A3G peptide binding; higher % means a stronger effect; test concentration not given here; strong numbers were not always called active; one-dose inhibition, %; IC50 in µM for titrated hits; actives 0.57% (n = 260,000);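 active means above the screen mean plus three standard deviations and confirmed in dose response; inconclusive means results disagree or hit not tested in dose response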;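 further: Vif residues 1-94 fused to GST binding biotinylated APOBEC3G peptide 110-148; 0% = full assay without inhibitor and 100% = GST in place of GST-Vif; retest series ran down from 100 µM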
# Beta2AR agonist – beta2AR agonists driving receptor internalization, primary screen, cell-based, FAP fluorogen, flow cytometry; Beta-2 adrenergic receptor (Homo sapiens), P07550; Am2.2-beta2AR cells; reference of the scale not given here; response, % (no concentration beside the values); actives 0.43% (n = 340,000); AID 504454, 2011;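 active means response above a set limit, near 3 SD of response in nonfluorescent compounds, cut at about 42% in these data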;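 further: stock transfer was 100 nL into about 11 µL; a reference agonist was the positive control; negative values mostly stem from fluorescent compounds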
# Target sequence (P07550 whole entry, looked up): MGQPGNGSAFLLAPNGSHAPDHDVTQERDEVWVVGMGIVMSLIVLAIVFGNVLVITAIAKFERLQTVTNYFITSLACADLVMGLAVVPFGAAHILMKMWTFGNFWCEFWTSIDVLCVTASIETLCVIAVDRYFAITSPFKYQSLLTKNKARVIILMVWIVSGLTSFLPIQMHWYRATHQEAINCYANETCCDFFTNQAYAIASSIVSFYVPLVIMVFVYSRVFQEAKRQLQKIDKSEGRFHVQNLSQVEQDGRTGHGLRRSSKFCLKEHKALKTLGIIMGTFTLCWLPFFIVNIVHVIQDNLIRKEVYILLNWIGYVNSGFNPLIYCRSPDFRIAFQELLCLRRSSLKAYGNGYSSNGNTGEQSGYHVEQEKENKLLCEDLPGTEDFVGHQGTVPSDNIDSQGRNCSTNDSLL
# ALR inh – inhibitors of human ALR sulfhydryl oxidase, primary screen, biochemical, H2O2 detection, HRP-luminol luminescence, single point; purified ALR, DTT oxidation; actives 3.8% (n = 290,000); FAD-linked sulfhydryl oxidase ALR (Homo sapiens), P55789; inhibition, % (concentration not given with the values);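 active means mean and each replicate at 75% or more; inconclusive means only one of the two met; inactive means neither met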;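 further: stock transfer was 7.5 nL into about 7.5 µL; 0% = neutral wells and 100% = wells with inactivated enzyme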
# Target sequence (P55789 whole entry, looked up): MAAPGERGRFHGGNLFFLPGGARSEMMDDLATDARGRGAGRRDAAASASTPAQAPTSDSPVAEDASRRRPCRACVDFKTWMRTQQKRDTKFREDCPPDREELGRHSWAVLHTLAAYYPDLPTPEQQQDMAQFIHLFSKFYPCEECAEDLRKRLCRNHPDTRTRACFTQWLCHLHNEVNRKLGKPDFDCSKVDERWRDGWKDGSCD
# HNF4A DNA FP – change in binding of human HNF4A to DNA, primary screen, biochemical, fluorescence polarization, FITC-DNA; AID 1224865, 2016; actives 0.3% (n = 360,000); activity change, % at 10 µM; 1 h; in the data active means activity change above about 30%, passing the limit was not always enough;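 further: controls were the assay level and a saturating level of protein; the project sought stronger binding though the title names inhibitors; some compounds called inactive have numbers as strong as hits; positive values seem to mean higher polarization but the record does not say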
# Target sequence (P41235 whole entry, looked up): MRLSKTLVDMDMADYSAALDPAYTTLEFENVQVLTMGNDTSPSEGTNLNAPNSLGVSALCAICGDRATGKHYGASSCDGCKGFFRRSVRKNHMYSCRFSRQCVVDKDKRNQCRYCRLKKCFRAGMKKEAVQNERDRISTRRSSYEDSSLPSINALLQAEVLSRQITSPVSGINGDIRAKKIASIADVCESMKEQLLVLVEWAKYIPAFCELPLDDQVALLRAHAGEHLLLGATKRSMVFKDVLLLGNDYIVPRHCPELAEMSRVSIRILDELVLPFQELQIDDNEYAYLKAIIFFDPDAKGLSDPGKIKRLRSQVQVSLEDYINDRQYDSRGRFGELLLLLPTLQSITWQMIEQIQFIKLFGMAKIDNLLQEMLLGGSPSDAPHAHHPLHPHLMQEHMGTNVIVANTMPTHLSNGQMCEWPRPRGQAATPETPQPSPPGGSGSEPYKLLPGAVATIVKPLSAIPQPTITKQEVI
# LANA-H2A inh – blockers of LANA interaction with H2A/H2B – biochemical, FP readout, HTS, primary screen | cell-free LANA-H2A/H2B peptide, fluorescence polarization | inhibition, % (test concentration not listed) | actives 0.6% (n = 320,000); in the data active means inhibition mostly above about 10%, no sharp cut-off; inactive means mostly below about 6.7%;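 further: stock transfer was 7.5 nL into about 10 µL; 0% = median of vehicle wells and 100% = median of positive control wells; one replicate is shown; the record names a cut of 25% in any replicate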
# Starred values were filed as active, the others as inactive; i = inactive; ? = inconclusive; . = not tested or not shown; & = joins results of further samples.
SMILES,Calb FLC,RanGTP-Imp inh,Vif A3G,Beta2AR agonist,ALR inh,HNF4A DNA FP,LANA-H2A inh
Cc1sc(NC(=S)NC(=O)CCc2ccccc2)c(C(N)=O)c1C,.,.,-16%,20,-9,2.2,-4.3
CCOc1ccc(CCNC(=O)C2CC(C)=CCC2C(=O)O)cc1OCC (configuration not stated),-1,2.5,57µM*,-1,-7,-7.6,-2.5
CCn1ccnc1CN1CCCC(C(=O)c2ccc3c4c(cccc24)CC3)C1 (configuration not stated),13,0.0,32%,-1,-8,-0.5,26*
CC1CC(C)CN(C(=O)C(C)N(C)CC(=O)Nc2ccc(F)cc2)C1 (configuration not stated),.,.,.,2,.,3.0,0.7
COc1ccc(S(=O)(=O)N(CC(=O)NCc2ccncc2)c2ccc(C)cc2)cc1Br,0,4.3,-3%,5,0,9.6,-4.7
COc1ccc(-c2cc(=O)[nH][nH]2)cc1OC,0,6.2,5%,-3,69,0.3,4.0
CCOc1ccccc1C(=O)OCC(=O)NCCNC(=O)COC(=O)c1ccccc1OCC,-29,1.8,.,-7,-2,-6.2,3.8
c1nc(N2CCCCCC2)c2[nH]cnc2n1,-3,3.0,-5%,1,-4,2.5,4.4
O=C(Nc1ccc2nc(-c3ccco3)c(-c3ccco3)nc2c1)N1CCCCCC1,?,80*,0.58µM*,.,-4,.,13
Cc1cc(C)cc(NC(=O)NCc2ccccn2)c1,-5,?,-4%,8,-10,1.5,0.8
CCOc1ccc(C(=O)Nc2cc(C)c3c(=O)oc4ccccc4c3n2)cc1,1,8.1,1%,7,0,12,1.1
COC1C/C(=N\O)C2OC(c3ccccc3)OCC2O1 (configuration not stated),-3,?,3%,-12,4,3.3,-4.5
O=C(Nc1ccccc1C(F)(F)F)N1CCCC(O)C1 (configuration not stated),-1,7.6,24%,1,-3,-3.9,-2.1
Cc1ccc(-c2csc(NC(=O)CSC3=NCCS3)n2)cc1,17,-1.8,2%,0,100*,4.3,0.7
COC(=O)C1=C(C(=O)OC)[C@@H]2N(C)c3ccc(OC)cc3[C@@]23C[C@@H](C(=O)OC)N(S(=O)(=O)c2ccc([N+](=O)[O-])cc2)C3=N1,-15,-2.9,.,-1,-25,-2.3,5.1
CCOc1ccc(NC(=O)CSc2n[nH]c(N)n2)c([N+](=O)[O-])c1,-14,-5.8,-1%,-1,-5,1.6,-6.1
Cc1cc(C)c2oc(C(=O)NC3CCS(=O)(=O)C3)cc(=O)c2c1 (configuration not stated),-17,0.8,-6%,-4,-2,2.4,5.9
O=C(OCc1cccc(Cl)c1)c1cc([N+](=O)[O-])ccc1N1CCOCC1,-6,4.6,1%,-2,4,-2.5,7.7
CCOC(=O)Cn1nc(C)c(NC(=O)COc2ccccc2)c1C,20,-0.4,13%,-1,-2,-0.7,-4.3
COc1ccc(N2CC(C(=O)NNC(=O)c3ccc(Br)cc3)CC2=O)c(OC)c1 (configuration not stated),-1,-2.7,4%,-6,-13,5.3,-9.2

# An excerpt of the results above, for reference:
SMILES,Calb FLC,RanGTP-Imp inh,Vif A3G,Beta2AR agonist,ALR inh,HNF4A DNA FP,LANA-H2A inh
Cc1sc(NC(=S)NC(=O)CCc2ccccc2)c(C(N)=O)c1C,.,.,-16%,20,-9,2.2,-4.3
CCOc1ccc(CCNC(=O)C2CC(C)=CCC2C(=O)O)cc1OCC (configuration not stated),-1,2.5,57µM*,-1,-7,-7.6,-2.5

# Reformatted with values under each structure: part of the list above
# Values run as follows: Calb FLC, RanGTP-Imp inh, Vif A3G, Beta2AR agonist, ALR inh, HNF4A DNA FP, LANA-H2A inh
> O=C(OCc1cccc(Cl)c1)c1cc([N+](=O)[O-])ccc1N1CCOCC1
 : -6, 4.6, 1%, -2, 4, -2.5, 7.7
> CCOC(=O)Cn1nc(C)c(NC(=O)COc2ccccc2)c1C
 : 20, -0.4, 13%, -1, -2, -0.7, -4.3
> COc1ccc(N2CC(C(=O)NNC(=O)c3ccc(Br)cc3)CC2=O)c(OC)c1 (configuration not stated)
 : -1, -2.7, 4%, -6, -13, 5.3, -9.2

# (next part)
SMILES,Calb FLC,RanGTP-Imp inh,Vif A3G,Beta2AR agonist,ALR inh,HNF4A DNA FP,LANA-H2A inh
CCOC(=O)c1nnc(-c2ccccc2)nc1Sc1c(Cl)cccc1Cl,5,1.9,1%,22,4,0.5,6.5
Cc1ccc(C(=O)Oc2ccccc2N2C(=O)C3CCC(C)CC3C2=O)cc1 (configuration not stated),-6,1.8,1%,1,-14,0.3,-1.5
CC12CCC(O)CC1=CCC1C2CCC2(C)c3[nH]ncc3CC12 (configuration not stated),.,.,-9%,12,.,0.3,.
CCOC(=O)C(NC(=O)Nc1ccc(Cl)cn1)(Oc1ccccc1)C(F)(F)F (configuration not stated),0,2.6,3%,18,1,3.3,-1.4
CCOC(=O)[C@H]1[C@H]2COc3cc(OC)ccc3[C@@H]2N2C(=O)c3ccc(C)cc3NC(=O)[C@@]12C,.,.,.,-2,.,-3.3,-2.4
COc1cc(C(=O)OC(C)CN2CCCCC2)cc(OC)c1OC (configuration not stated),4,1.3,3%,-1,-8,0.4,1.2
Cc1ccc(C)c(S(=O)(=O)Nc2ccc(-n3cnnn3)cc2)c1,.,.,-4%,3,-3,1.5,4.7
CSc1nc2nccc(-c3ccc4c(c3)OCO4)n2n1,34,0.8,.,-8,-2,-0.2,i
Cc1ccc(NC(=O)Cn2cc3c(n2)CCC(C)C3)cc1 (configuration not stated),-5,3.3,-4%,-11,-25,0.8,-1.8
Cc1ccc(C2=NC(C)(C)NC2=O)cc1,-11,0.5,-1%,-1,.,2.1,-9.2
O=C(Nc1ccc(SC(F)F)cc1)C1=COCCO1,-11,-3.1,8%,1,99*,2.7,-1.2
CCOCCCNC(=O)/C(C#N)=C/c1cc(C)c(O)c(C)c1,-2,-4.4,?,4,-21,0.1,-3.7
Cc1c(OCC(=O)NCc2ccccn2)ccc2c(-c3ccccc3)cc(=O)oc12,1,2.6,.,-4,.,0.9,-0.1
Cc1ccccc1-c1nc(-c2ccc(NC(=O)c3ccc4c(c3)OCO4)cc2)no1,24,-2.4,25%,7,5,5.6,1.0
O=c1c(Cc2c(F)cccc2Cl)c(O)ccn1C1CC1,-20,1.0,8%,-1,.,-1.1,0.3
CN(C)C(=O)c1ccc(-c2cc3onc(-c4ccccc4)c3c(=O)n2C)cc1,.,.,.,-4,-1,1.0,-2.4
C=CC(C)(O)CCC=C(C)C (configuration not stated),.,.,.,-3,.,0.6,-0.6
CC(C)(C)OC(=O)N[C@@H](C(=O)OC(C)(C)C)c1ccccc1,.,.,.,1,-3,-0.7,8.3
COc1ccc(C(=O)N2CC3(CC(c4ccc(Cl)cc4)=NO3)C[C@H]2C(=O)NCC(N)=O)cc1 (some centres not stated),-5,-0.9,1%,-4,-19,-1.1,2.4
Cn1nnnc1SCc1cc(=O)[nH]c2ccccc12,12,0.0,29%,-3,-11,1.5,3.2
CC[n+]1cccc(-c2nc3ccccc3s2)c1,-20,-2.3,5%,-4,-2,2.4,-0.7
CCC(C)C(=O)Nc1nnc(SCC(=O)Nc2ccccc2F)s1 (configuration not stated),-17,-0.2,-2%,9,-2,-1.0,-2.1
S=C(NCc1ccc(Cl)cc1Cl)Nc1ccccc1,-1,-1.8,-2%,-1,-4,1.3,2.9
Cc1nc(SCC(=O)N(C)C2CCS(=O)(=O)C2)c(C#N)c(C)c1C (configuration not stated),.,.,.,10,.,-0.7,-2.4
CSc1nsc(/C=C/Nc2ccc(C(=O)O)cc2)c1C#N,-2,7.4,.,-5,-32,49*,2.0
CCN(CC)S(=O)(=O)c1cccc(C(=O)Nc2cc(C)cc(C)c2)c1,3,7.5,-4%,2,-2,0.4,5.4
c1nc(NCc2ccc3c(c2)OCO3)c2cc(-c3ccc4c(c3)OCCO4)ccc2n1,.,.,.,1,-2,5.5,-0.6
CC(C)CCN1C(=O)c2ccccc2C1C(=O)NCc1cccnc1 (configuration not stated),-19,4.7,8%,4,-2,-0.5,-0.9
Cc1ccc(NC(=S)NCCc2ccc(Cl)cc2)c(C)c1,-17,1.1,-4%,4,-4,5.2,-0.7
CC(C)NC(=O)CSc1nc2ccccc2n1CC(=O)N(C(C)C)C(C)C,-10,-3.2,-3%,-5,.,-0.8,.
Cc1ccccc1NC(=O)CSc1nnc2ccc(-c3ccncc3)nn12,-1,0.6,-9%,-2,-5,0.0,-5.2
Cc1cc(C(=O)C(=O)NC(C)C)c(C)n1-c1ccc([N+](=O)[O-])cc1,17,-1.1,4%,12,-13,1.8,-0.5
CC(=O)c1cccc(NC(=O)CCCN(C)S(=O)(=O)c2ccc(F)cc2)c1,-1,-1.2,.,-12,24,-0.5,-5.4
O=C(c1cccc(C(F)(F)F)c1)C1CCCN(C(=O)CCCN2CCCC2=O)C1 (configuration not stated),2,-2.4,68%,1,-6,1.4,0.5
CC(=O)Nc1ccc(S(=O)(=O)N2CCC(C(=O)NC3CCCC3)CC2)cc1,4,-0.4,5%,-22,-1,-15,-4.3
CCOc1ccc(N(Cc2cc3ccc(C)cc3[nH]c2=O)S(C)(=O)=O)cc1,43,-1.9,-10%,-27,-10,-3.1,-0.7
O=C(COc1cccc2cccnc12)N/N=C1\SCC(=O)N1Cc1ccccc1,15,3.2,-3%,-4,-3,4.6,0.3
O=C(CSc1cc(Cl)ccc1Cl)NCCCn1ccnc1,-2,-1.0,-7%,-11,-21,-3.3,5.7
C=CCn1c(SCC(=C)C)nc2c1c(=O)[nH]c(=O)n2C,-1,-0.7,.,2,8,-4.9,-0.1
CCOC(=O)Cc1csc(SC(C)C(=O)Nc2ccc(NC(C)=O)cc2)n1 (configuration not stated),-22,-2.5,-3%,0,-3,1.7,1.1
O=C(CCc1ccncc1)NC1CCCc2c1cnn2-c1ccc(F)cc1F (configuration not stated),6,3.0,.,4,-2,0.1,0.2
CC(=O)Nc1ccc(SCC(=O)Nc2ccc3c(c2)OCCO3)cc1,.,.,-9%,-2,98*,-1.1,-3.1
CCCC(CCC)C(=O)Nc1cccc(-c2cn3c(n2)SCC3)c1,-6,2.6,.,-7,-1,38*,-5.7
Cc1ccc(NC(=O)CSC(C)c2nc3ccccc3c(=O)[nH]2)cc1 (configuration not stated),29,-2.0,9%,0,45,3.0,-5.1
N#CC1=C(N)Oc2nc(-c3ccccc3)[nH]c2C1c1cccnc1 (configuration not stated),6,-0.9,9%,-4,3,7.7,0.2
Cc1ccc(-c2cc(C(=O)NC3=NCCS3)c3ccccc3n2)cc1C,0,2.2,-2%,-8,90*,-3.3,-5.7
COc1cc2nc(CN(C)Cc3ccc(F)cc3)[nH]c(=O)c2cc1OC,5,-1.4,.,0,-1,2.5,4.6
O=C(NCC(c1cccnc1)N1CCOCC1)c1ccco1 (configuration not stated),2,2.7,-1%,-4,-3,-0.9,1.3
Cc1ccc(-c2csc3nc(C)n(N)c(=O)c23)o1,8,12,7%,-2,4,3.7,-7.1
CN(C)CCOC(=O)C1(c2ccccc2)CCOCC1,-28&-2,-6.6&-0.2,-1%&-4%,0&4,-1&-7,0.4&-0.9,-1.7&1.2
COc1cc(/C=N/NS(=O)(=O)c2ccc(C)c([N+](=O)[O-])c2)ccc1O,5,-3.1,1%,1,99*,-1.5,2.4
O=C(O)CC(NC(=O)c1ccco1)c1ccco1 (configuration not stated),21,-0.2,.,3,-1,-2.9,2.3
O=C(NCCc1ccccc1)c1ccccc1NS(=O)(=O)N1CCCC1,-9,0.5,-7%,-7,-2,-0.9,2.3

# Source: PubChem BioAssay
